# AID504770 – growth inhibition of E. coli YBA685, primary screen, V. cholerae RctB inhibitors; E. coli YBA685 rctB-dependent plasmid, OD600 growth, 3 h; hits give low values; z-score (no concentration beside the values); 130,000 compounds, 0.27% hits;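 active means z-score under -2 on both plates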;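 further: wells of about 30 µL received 100 nL stock; score is relative to mean and SD of the test wells; the first replicate is given; strong numbers were not always called active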
# Ba CapD inh – Bacillus anthracis CapD inhibitors, primary screen, biochemical, fluorescence intensity | 140,000 compounds, 0.23% hits | CapD gamma-glutamyltranspeptidase (Bacillus anthracis Ames Ancestor) | AID 492967, 2010 | z-score (no concentration beside the values) | purified CapD enzyme, fluorescence intensity read-out; hits give low values; some hits fall short of the stated cut;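 active means z-score under -4 in either of two replicates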;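 further: stock transfer was 100 nL into about 40 µL; score is relative to mean and spread of the plate; one replicate is shown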
# * = called active by the depositor; . = no result given.
mol | AID504770 | Ba CapD inh
NS(=O)(=O)c1ccc(NC(=O)Cc2ccccc2F)cc1 | 2.5 | .
N#CC1=C(N)OC2=C(C(=O)CCC2)C12C(=O)N(C(=O)c1ccccc1Cl)c1ccccc12 (stereo not given) | . | 0.34
c1ccc(CN(Cc2ccccc2)c2ncnc3c2cnn3-c2ccccc2)cc1 | . | 0.18
COCc1cc(C)nc(SCC(=O)Nc2cccc3ccccc23)c1C#N | . | -0.04
Cc1ccccc1Oc1ccc(CN)cc1 | -0.4 | .
N#CCCCn1c(=O)oc2ccccc21 | 0.5 | .
C=CCN(c1ccc(C(=O)Nc2ccc(OC)cc2OC)cc1)S(C)(=O)=O | 1.3 | -0.38
COc1nc(SC)nc2sc3c(c12)CCC3 | -0.9 | -0.15
C=CCOC(=O)C1=C(C)NC(SCC(=O)Nc2cc(OC)c(Cl)cc2OC)=C(C#N)C1c1cccs1 (stereo not given) | . | 0.33
O=C(O)CNC(=O)c1ccc(Cl)c(Cl)c1 | -0.9 | -0.12
Cc1c(C(=O)N2CCN(C)CC2)oc2c1C(=O)CC(C)(C)C2 | -0.55 | 0.22
O=C1CC(c2ccco2)CC(O)=C1C=NCC1NCCc2ccccc21 (stereo not given) | 0.35 | 0.21
OCC1CCCN1Cc1ccccc1C(F)(F)F (stereo not given) | 0.55 | 0.11
OC(CN1CCN(c2ccc(C(F)(F)F)cn2)CC1)c1ccc(F)cc1 (stereo not given) | 0.85 | 1.3
COC(=O)c1ccccc1S(=O)(=O)NCC#N | -0.65 | -0.15
CCOC(=O)c1sc2nc(SCC#N)n(Cc3ccccc3)c(=O)c2c1C | . | 0.57
N#Cc1ccc(C=Nc2cccc3c(=O)[nH][nH]c(=O)c23)cc1 | -0.55 | 37
CC(C)(C)c1ccc(S(=O)(=O)N2CCCC(C(=O)O)C2)cc1 (stereo not given) | 0 | -0.72
CC1CCCC(C)N1C(=O)c1csc2c1CCCC2 (stereo not given) | 0.35 | 0.23
O=C(OCc1ccc2c(c1)OCO2)c1c(F)cccc1Cl | -1.2 | -1.6
O=C(CNC(=O)c1ccccc1Br)N/N=C/c1ccc([N+](=O)[O-])s1 | . | -1
Cc1ccc2c(c1)N(Cc1cccc(C(F)(F)F)c1)C(=O)C(C)O2 (stereo not given) | -0.15 | .
CCN(CC)C(=O)Cn1cnc2sc(C(=O)N3CCN(Cc4ccc5c(c4)OCO5)CC3)c(C)c2c1=O | . | -0.21
Cc1nc2cc(N3CCN(C)CC3)c(NC(=O)C3CC3)cc2c(=O)n1Cc1ccccc1 | -0.5 | .
O=S(=O)(Nc1nc(-c2ccc(F)c(F)c2)cs1)c1cccs1 | 1.6 | 1.1
O=C(c1ccco1)N1CCN(S(=O)(=O)c2ccc(Cl)c(C(F)(F)F)c2)CC1 | 0.55 | 0.005
CN1C(=O)c2ccccc2C(C(=O)NCCCN2CCCC2=O)C1c1cn(C)c2ccccc12 (stereo not given) | -0.8 | -0.5
CCCCCCCc1cc(O)c2c3c(c(=O)oc2c1)CCC(C)C3 (stereo not given) | . | -0.17
COc1ccc(S(=O)(=O)N2C3CCC2CC(NC(=O)NC2CCCCC2)C3)cc1 (stereo not given) | -0.5 | .
COc1cc(-c2nc(Nc3cccc([N+](=O)[O-])c3)c3ccccc3n2)cc(OC)c1OC | . | 0.44
O=C1c2ccccc2NC(c2ccco2)N1O (stereo not given) | 0 | 7.3
OCc1nc2ccccc2[nH]1 | 2.4 | -0.23

# Quoted from the listing, 2 compounds:
mol | AID504770 | Ba CapD inh
O=S(=O)(Nc1nc(-c2ccc(F)c(F)c2)cs1)c1cccs1 | 1.6 | 1.1
O=C(c1ccco1)N1CCN(S(=O)(=O)c2ccc(Cl)c(C(F)(F)F)c2)CC1 | 0.55 | 0.005

# Next part:
mol | AID504770 | Ba CapD inh
Cc1ccc2c(c1)C1CN(C)CCC1N2C(=O)c1ccc(Br)cc1 (stereo not given) | -0.3 | .
Cc1cc2nnc(SCC(=O)Nc3cccc(C(F)(F)F)c3)n2c2ccccc12 | . | -0.2
CC1(C)CC(n2[nH]c(=O)cc2N)CCO1 (stereo not given) | 1.4 | 0.57
COc1ccc(-n2cc(-c3ccccc3)c3c(NN4CCOCC4)ncnc32)cc1 | 0.15 | 1.3
COc1ccc(N/C=C/C(=O)c2sc(-c3cccnc3)nc2C)cc1 | . | -2.2
Cc1cnc2c(c1SCC(=O)NC1CCCC1)c(=O)n(C)c(=O)n2C | -0.5 | .
CS(=O)(=O)c1ccc2nc(NC(=O)COc3ccccc3)sc2c1 | 0 | .
Cc1nc(CCNS(=O)(=O)c2cccs2)cs1 | -0.4 | 0.62
CCc1nc2ccc(Oc3ccc4nc(CC)[nH]c4c3)cc2[nH]1 | 0 | -0.16
Cc1ccc(C23CC4CC(CC(C(N)=O)(C4)C2)C3)cc1 | . | -0.34
COc1ccc2c(C)cc(N3CCC(C(N)=O)CC3)nc2c1 | -0.1 | .
NNC(=O)c1cc(=S)nc[nH]1 | -1.3 | -2
COc1ccc(Br)cc1CCNC(=O)c1ccc(N2N=C(C)CC2=O)cc1 | . | -0.86
CCOC(=O)c1ccc(NC(=O)c2ccc3ncsc3c2)cc1 | 0.4 | -0.04
CSc1nc(Sc2cccc(C)c2)c(C#N)c(-c2ccc(C)cc2)n1 | . | 0.005
O=C1NC(=O)N(c2ccccc2F)C(=O)/C1=C\c1ccc(Oc2ccc([N+](=O)[O-])cn2)cc1 | . | -0.98
O=C(CCc1nc2ncccc2c(=O)n1Cc1ccccc1Cl)N1CCN(c2ccccc2)CC1 | -0.15 | 3.6
CCc1ccc(-c2cn3nc(C)c(C)nc3n2)cc1 | -2.5 | 2.2
Cn1c(=O)c2c(nc(SCC(=O)Nc3ccccc3)n2C)n(C)c1=O | 1.9 | -0.12
COc1ccc(OC(=O)c2c(Cl)cccc2Cl)cc1 | -0.7 | -0.11
CC(=O)N1CCC(N(CCN2CCOCC2)C(=S)Nc2cccc(C(F)(F)F)c2)CC1 | -0.85 | 0.17
COC(=O)c1ccc(-n2c(C)cc(/C=N/N(C)C)c2C)cc1 | 0.3 | .
CC1(C)CN(c2ccc(OCc3ccccc3)cc2)C1=O | 0.5 | -0.79
COc1ccccc1N1CCN(S(=O)(=O)c2ccc(F)c(C(=O)Nc3ccccc3C(F)(F)F)c2)CC1 | . | 0.45
Cc1oc(C(C)(C)C)cc1C(=O)C(C#N)=C1SCCS1 | 0.15 | 7.7
O=C(O)c1ccc(NC(=O)c2cc3c([nH]c2=O)CCCC3=O)cc1 | 0.6 | -1.5
Cc1ccc(N2C(=O)/C(=C/N(C)C)c3ccccc3C2=O)cc1 | 2.1 | .
CCOC(=O)c1c(C)n(Cc2ccccc2)c2ccc(OCC(O)CN3CCCCCC3)cc12 (stereo not given) | 1.2 | 0.37
CCOC(=O)Nc1ccc2c(CN3CCN(c4ccc(OC)cc4)CC3)cc(=O)oc2c1 | -1.1 | .
Cc1c(N=CC2CCCN3CCCCC23)c(=O)n(-c2ccccc2)n1C (stereo not given) | 0.1 | -2.5
CC(C)(C)C(=O)Oc1ccc(-c2csnn2)cc1 | -1.3 | 0.12
Cc1cc(C)c(C(=O)O)c(CC(C)(C)C(=O)N2CCN(c3cccc(C(F)(F)F)c3)CC2)c1 | . | -0.6
Cn1c(SCc2ccc(C(=O)NCCO)cc2)nc2sc3c(c2c1=O)CCC3 | . | -0.1
COc1cccc2cc(-c3cc(=O)oc4cc(C)c(OC(=O)N(C)C)cc34)oc12 | -0.3 | .
CCOC(=O)c1cc(-c2ccccc2)sc1NC(=O)c1cc(OC)c(OC)c(OC)c1Br | . | -0.29
Oc1ccc(N2CCN(c3nc(-c4cccnc4)nc4ccccc34)CC2)cc1 | 1.9 | .
CN(C)/C=N/S(=O)(=O)c1ccc(Cl)c(Cl)c1 | 1.8 | -0.45
CCOC(=O)C1=C(C)OC(N)=C(C#N)C1c1ccc(O)cc1 (stereo not given) | . | 0.16
COc1cc(/C=C(\C#N)c2ccccc2)cc(OC)c1OC | 0.15 | 1.9
c1cnc(N2CC[N+]3(CCCC3)CC2)nc1 | -0.65 | 11
O=C(NCCOc1ccccc1Cl)c1ncn[nH]1 | -0.15 | .
CCNC(=S)Nc1ccc(NC(=O)c2ccccc2O)cc1 | 0.85 | 10
O=C(NCc1cccc(F)c1)C1CC(O)CN1C(=O)Nc1ccccc1 (stereo not given) | -0.5 | .
CN1CCN(CCCNC(=O)C2C3C=CC4(CN(Cc5ccccc5Cl)C(=O)C24)O3)CC1 (stereo not given) | 0.15 | -0.065
C=C(C)Cn1c(=S)[nH]c2sc3c(c2c1=O)CC(C)(CC)OC3 (stereo not given) | . | 3.1
O=C(O)CCC(=O)N1N=C(c2c(-c3ccccc3)c3cc(Cl)ccc3[nH]c2=O)CC1c1ccco1 (stereo not given) | . | 18
CCOC(=O)CSc1nc(NC)c2c3c(sc2n1)CCCC3 | -0.5 | -0.48
COc1ccc2ccccc2c1CN1CCC(NS(=O)(=O)c2ccccc2Cl)C1 (stereo not given) | . | 1.1
Cc1cc(=O)n2nc(C)sc2n1 | -0.3 | .
O=[N+]([O-])c1cc2c3c(c1)C(c1ccccc1)(c1ccccc1)CCN3CCC2(c1ccccc1)c1ccccc1 | . | -0.43
Nc1ccc(N=C2C(=O)Nc3ccccc32)cc1 | 0.3 | .
COCCCn1c(=O)c(C#N)cc2c(=O)n3ccccc3nc21 | 0.1 | 87
CCOC(=O)c1nnn(-c2nonc2N)c1CN1CCC(=O)CC1 | . | 0.85
Cn1c(SCC(=O)c2ccc3c(c2)OCCO3)nnc1C(F)(F)F | 2 | -0.56
O=C(c1cnn2ccccc12)N1CCN(C2CCCCC2)CC1 | -0.95 | 3.1
O=C(O)c1cc(-c2ccc(N3CCOCC3)cc2)nn1-c1ccc(F)cc1 | 1.6 | .

# Going on with the list:
mol | AID504770 | Ba CapD inh
Cc1ccc(S(=O)(=O)NC2CCCCC2)cc1-c1nnc2c3ccccc3c(C)nn12 | 0.1 | 0.23
O=C(CNc1ccccc1N1CCCCC1)Nc1ccc(F)cc1Cl | 0.4 | .
CN(Cc1ccccc1)C(=O)c1ccc2nc(N3CCCCC3)sc2c1 | 1.6 | 7
COC(=O)c1cc(=O)nc2n1C1O[C@H](CO)C(O)[C@H]1O2 (stereo not given in full) | 0.9 | 0.36
Cc1nnc(N2C(=O)C(=O)/C(=C(/O)c3ccc(F)cc3)C2c2ccccc2F)s1 (stereo not given) | . | -0.34
CC(=O)C1=C(C)NC(SCc2ccc(F)cc2)=C(C#N)[C@@H]1c1ccccc1[N+](=O)[O-] | . | -0.18
CCC(=O)Nc1sc(C)c(CC)c1C(=O)NC1CC1 | -0.9 | 0.005
CCOC(=O)C1=C(C)N=c2s/c(=C\c3ccc(Br)o3)c(=O)n2C1c1ccccc1OC (stereo not given) | . | 0.24
CSc1nnc(SCC(=O)NC(=O)c2cccn2C)s1 | -0.75 | .
Cc1cc(=O)[nH]c(N/N=C2/CCc3ccccc3C2)n1 | 1 | .
O=C1C=C(NCc2ccncc2)CC(c2ccccc2)C1 (stereo not given) | -0.65 | 0.95
COC(=O)[C@H](C)NC(=O)c1ccc(S(=O)(=O)N2CCOCC2)cc1 | 0.4 | .
Cc1ccc(N/N=C2/CCCNC2=O)cc1 | . | -2.7
OC(COc1ccc2cc(Br)ccc2c1)Cn1cccn1 (stereo not given) | 0.4 | .
COc1ccccc1C1CCN(C(=O)c2ccc(Cl)cc2)CC1 | . | 0.46
Cc1ccc2c(c1)sc1nc(-c3cc4ccccc4oc3=O)cn12 | -0.65 | 1.7
Cc1nnc(SCc2ccccc2)nc1/C=C/Nc1ccc(F)cc1 | . | 24
Cc1csc(NC(=O)CSc2ncnc3ccccc23)n1 | -0.05 | 0.17
Cc1ccc(C)c(-n2c(=O)c3ccccc3n3c(SCc4ccc(C#N)cc4)nnc23)c1 | 0.2 | .
CN(C)c1ccc(C(=O)Nc2ccc(Oc3c(Cl)cccc3Cl)nc2)cc1 | 2.3 | 18
COc1cccc(N2CC(NC(=O)NC(C)(CO)CO)CC2=O)c1 (stereo not given) | 0.1 | .
Cc1ccc(-c2csc3ncnc(NCCN4CCNC4=O)c23)cc1 | -1.3 | -0.56
CCOP(=O)(OCC)C(c1cc(C(C)(C)C)c(O)c(C(C)(C)C)c1)N1CCCCC1 (stereo not given) | . | 0.73
COc1ccccc1C(c1c(C)[nH]n(-c2ccccc2)c1=O)c1c(C)[nH]n(-c2ccccc2)c1=O | . | 0.035
CC(C)(C)c1cc(-c2nnc(C3CC3)o2)n(Cc2ccc(F)cc2)n1 | 0.4 | -0.61
C=CCNC(=O)c1cc(OCC(F)(F)F)ccc1OCC(F)(F)F | . | -0.61
COc1ccc2c(c1)CCC(/C=N/O)=C2Cl | -0.15 | 0.87
CCc1ccccc1NC(=O)CCC(=O)O | 0.6 | -0.055
Cc1ccc(C(O)CSc2nnc(-c3ccc4ccccc4c3)n2C)cc1 (stereo not given) | 0 | 2.1
CCCc1cc(C(=O)Nc2ccccc2C(=O)OC)no1 | -0.6 | -0.74
COc1cccc(-c2noc(NCCN3CCOCC3)n2)c1 | -0.35 | -0.16

# 3 structures out of the list, sorted by length of the SMILES, rising.
mol | AID504770 | Ba CapD inh
c1cnc(N2CC[N+]3(CCCC3)CC2)nc1 | -0.65 | 11
c1ccc(CN(Cc2ccccc2)c2ncnc3c2cnn3-c2ccccc2)cc1 | . | 0.18
CN(C)c1ccc(C(=O)Nc2ccc(Oc3c(Cl)cccc3Cl)nc2)cc1 | 2.3 | 18

# One compound at a time (already shown):
# Entry for COc1cccc(-c2noc(NCCN3CCOCC3)n2)c1 : AID504770: -0.35; Ba CapD inh: -0.16
# Entry for COc1ccc2c(c1)CCC(/C=N/O)=C2Cl : AID504770: -0.15; Ba CapD inh: 0.87
# Entry for CCc1ccccc1NC(=O)CCC(=O)O : AID504770: 0.6; Ba CapD inh: -0.055
